Screens deposited in PubChem BioAssay by National Center for Advancing Translational Sciences (NCATS).
SARS PLP yeast: inhibitors of SARS-CoV papain-like protease in yeast. S. cerevisiae expressing SARS-CoV PLpro, growth rescue; control for the full effect not named in the record. Potency, µM (highest dose often 32.9 µM), without a hit: at the highest dose activity, positive = growth rescue. 330,000 tested, 0.19% active. AID 485353; further: 0% is about no effect; nearly all actives have a fitted effect of over 55% in size; growth read by luminescence after 48 h
Cruzain inh Det: blocks cruzain activity in presence of Triton detergent. Potency, µM, inactives show max response, negative = inhibition, most hits filed as inhibitors. purified cruzain, Z-FR-AMC fluorescence, 0.01% Triton. P25779. 200,000 tested, 0.43% active; active means well fitted curve in the direction sought with a large enough effect; inconclusive means small, poorly fitted or top-dose-only effect, or another doubt; inactive means no such curve, though single readings can be large; an effect the other way counts as inactive or inconclusive;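 further: plate controls were neutral wells for no effect and buffer without enzyme for full effect; nearly all actives have a fitted effect of over 40% in size; top concentration of the series not given in the record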
Target sequence (P25779 123-467 limits assumed): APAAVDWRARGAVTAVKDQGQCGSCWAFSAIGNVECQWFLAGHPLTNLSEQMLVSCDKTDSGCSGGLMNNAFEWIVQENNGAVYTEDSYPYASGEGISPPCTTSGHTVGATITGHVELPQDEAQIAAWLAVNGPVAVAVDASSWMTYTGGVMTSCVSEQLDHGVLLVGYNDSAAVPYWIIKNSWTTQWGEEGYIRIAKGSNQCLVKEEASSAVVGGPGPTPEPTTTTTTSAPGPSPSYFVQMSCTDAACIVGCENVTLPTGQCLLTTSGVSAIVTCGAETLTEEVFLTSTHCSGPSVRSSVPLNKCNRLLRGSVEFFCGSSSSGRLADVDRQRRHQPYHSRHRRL
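Sodium acetate buffer (100 mM, pH 5.5) containing 5 mM DTT and 0.01% Triton X-100 hosted 1.5 nM cruzain and test compound for 15 min at room temperature. Cleavage of 2 uM Z-FR-AMC was then tracked by fluorescence.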
RE007 growth inh: less growth of the S. pombe RE007 Vpr strain; Potency, µM (series often up to 92.2 µM), inactives show top-dose activity change, negative = less growth; S. pombe RE007 Vpr strain, BacTiter-Glo ATP luminescence, 24 h; control for the full effect not named in the record; 360,000 tested, 0.21% active; AID 651644; active = well fitted falling curve with a large enough effect; inconclusive = small, poorly fitted or top-dose-only effect; inactive = no such curve, though single readings can be large or run the other way;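 further: on the % scale 0 is the no-effect control and ±100 the full control effect; nearly all actives have a fitted effect of over 50% in size; the assay follows cell death caused by Vpr and the record does not say whether a fall means rescue or toxicity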
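Fission yeast strain RE007, carrying one chromosomally integrated HIV-1 vpr copy, was seeded at OD 0.01 in PMG+AL medium with 23 nL pinned compound. After 24 h at 30 °C and 99% humidity, viability was read by BacTiter-Glo luminescence.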
Cruzain inh noDet: blocks cruzain activity in detergent-free assay; purified cruzain, Z-FR-AMC fluorescence, no detergent; Potency, µM, for inactives: max response, negative = inhibition, hits mostly inhibitors; 200,000 tested, 2.3% active; active means well fitted curve in the direction sought with a large enough effect; inconclusive means small, poorly fitted or top-dose-only effect, or another doubt; inactive means no such curve, though single readings can be large; an effect the other way counts as inactive or inconclusive;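 further: plate controls were enzyme without inhibitor for no effect and buffer without enzyme for full effect; nearly all actives have a fitted effect of over 40% in size; top concentration of the series not given in the record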
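Detergent-free condition (0.00005% Triton X-100) in acetate buffer pH 5.5 with DTT. 1.5 nM enzyme and compound were pre-mixed 15 min, then 2 uM Z-FR-AMC substrate added; reaction progress from fluorescence change between first and third reads (60 s).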
NS1 inh: inhibitors of influenza NS1 protein function; 270,000 tested, 0.4% active; S. cerevisiae slowed by influenza A NS1, growth recovery by OD600; Potency, µM (series often up to 46.1 µM), without a hit: at the top dose activity, positive = more growth; further: actives are rising curves; nearly all actives have a fitted effect of over 50% in size
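Read-out: OD600 growth recovery of NS1-expressing budding yeast. Cells grown overnight at 30C in -URA glucose medium, washed, resuspended and diluted 1:100 in 2% galactose assay medium, pH 6.0. Same strain lacking NS1 served as positive control.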
LASV entry inh: inhibitors of Lassa virus binding or cell entry. Lassa virus pseudotype entry inhibition, cell reporter; control for the full effect not named in the record. AID 540256. 300,000 tested, 1.2% active. Potency, µM (top dose mostly 37.9 µM), without a hit: top-dose activity change, negative = inhibition, most hits filed as inhibitors; active means well fitted inhibition curve with a large enough effect; inconclusive means small, poorly fitted or top-dose-only effect, or effect the other way; inactive means flat fitted curve, though single readings scatter; tested in HEK293 cells; further: on the % scale 0 is the no-effect control and ±100 the full control effect; nearly all actives have a fitted effect of over 50% in size; luciferase read-out
Marburg entry inh: Marburg virus entry inhibition. 300,000 tested, 1.8% active. Marburg virus pseudotyped entry inhibition, cell reporter; control for the full effect not named in the record; about a third of the inactives were read at about 46 µM. AID 540276. Potency, µM (series often up to 37.8 µM), without a hit: at the top dose activity change, negative = inhibition, most hits filed as inhibitors; active = well fitted inhibition curve with a large enough effect; inconclusive = small, poorly fitted or top-dose-only effect, or effect the other way; inactive = flat fitted curve, though single readings scatter; tested in HEK293 cells; about a fifth of its hits are not listed in these tables; further: on the % scale 0 is the no-effect control and ±100 the full control effect; luciferase read-out
StopGo reporter: lowers the luciferase signal of an FMDV 2A StopGo reporter. human cells with a luciferase reporter of 2A StopGo recoding; control for the full effect not named in the record. Potency, µM (series often up to 57.9 µM), inactives show top-dose signal change, negative = less light. 410,000 tested, 1.2% active; active = well fitted falling curve with a large enough effect; inconclusive = small, poorly fitted or top-dose-only effect; inactive = no such curve, though single readings can be large or run the other way; tested in HEK293T cells; further: on the % scale 0 is the no-effect control and ±100 the full control effect; nearly all actives have a fitted effect of over 45% in size; luciferase light after 4 h
Numbers without * were called inactive; ? = inconclusive; . = no result given; [ ] = remark or other dose. Unless noted, the call rests on the fitted dose curve; in most records, active means well fitted rising curve with a large enough effect; inconclusive means small, poorly fitted or top-dose-only effect; inactive means no such curve, though single readings can be large or run the other way. Potency means the concentration at half of the fitted maximal effect.

Sequence of screens: SARS PLP yeast | Cruzain inh Det | RE007 growth inh | Cruzain inh noDet | NS1 inh | LASV entry inh | Marburg entry inh | StopGo reporter
- COc1ccccc1N1CCN(C2CCCN(C(=O)c3snnc3C)C2)CC1 (stereo not given)
 : 5% | . | 4% | . | 2% | . | . | -2%
- CCc1ccccc1NC(=O)c1ccc2c(c1)N(Cc1cc(C)ccc1C)C(=O)c1ccccc1S2(=O)=O
 : . | 0.2% | . | 16µM* | . | 1%[46.1 µM] | ? | -12%
- O=C(O)CCCN1C(=O)C(=O)/C(=C(/O)c2ccc(Cl)cc2)C1c1ccccc1 (stereo not given)
 : 1% | . | 5% | . | 6% | . | . | -3%
- Cc1ccc(-c2cc(C(=O)Nc3cccnc3)c3ccccc3n2)o1
 : -3% | -6.4% | 1% | -5% | -3% | 7% | 6% | .
- CCCSc1nc(C)nc2c1c(=O)n(C)c(=O)n2C
 : 3% | -1.8% | . | -9% | 0% | . | -1% | .
- O=C(Nc1cccc(O)c1)c1cccc(S(=O)(=O)N2CCCC2)c1
 : -3% | -1.3% | -2% | -1% | 0% | -5% | 8% | -16%
- Nc1ccc(Cl)c(S(=O)(=O)Nc2ccccc2Cl)c1
 : 5% | . | -22% | . | . | 25% | 8%[46.1 µM] | 23%
- COc1cccc2cc(/C(=N/O)c3ccc(Br)cc3)oc12
 : 0% | . | -12% | . | 0% | -22% | -29% | -19%
- COC(=O)c1cc(NC(=O)c2sc3ncn(Cc4cccc(F)c4)c(=O)c3c2C)cc(C(=O)OC)c1
 : . | 0.1% | . | 0% | . | ? | . | -5%
- O=C(CSCCO)Nc1cccc([N+](=O)[O-])c1
 : -22% | -1.3% | 6% | 6% | 0% | 6% | 0% | -18%
- Oc1ccccc1CNc1nc2ccccc2n1CCN1CCCCC1
 : 9% | 7.5% | -4% | -1% | -4% | . | . | -10%
- O=C(NCCNC(=O)c1ccco1)c1ccco1
 : -2% | . | -4% | . | -9% | 8% | 0%[46.1 µM] | -17%
- COc1ccc(C)cc1S(=O)(=O)NCC(c1ccco1)N1CCc2ccccc2C1 (stereo not given)
 : -2% | . | -11% | . | . | 8% | -12% | 57%[activator]
- FC(F)(F)c1cccc(NC(=S)Nc2cccc(NC(=S)Nc3cccc(C(F)(F)F)c3)n2)c1
 : 0% | . | -16% | . | -3% | ? | ? | -21%
- Cn1ccsc1=NC(=O)c1ccc(CS(C)(=O)=O)cc1
 : 0% | . | 3% | . | -4% | -3%[46.1 µM] | ? | 10%
- Cc1cc(N2CCCCCC2)nc2ccc(F)cc12
 : . | . | -6% | . | . | 10% | 7% | 27%
- COc1ccc(C)cc1-n1[nH]nnc1=S
 : 0% | . | -11% | . | 0% | 3%[46.1 µM] | 16%[46.1 µM] | 2%
- CC(=O)c1ccc(S(=O)(=O)N2CCCC(N(C)CCc3ccccn3)C2)cc1 (stereo not given)
 : 1% | . | 0% | . | 4% | . | . | 0%
- CCC1(C)Cc2c(sc3nnn(CC(=O)Nc4ccccc4C)c(=O)c23)CO1 (stereo not given)
 : 6% | -5.0% | -11% | -8% | 12% | -11%[14.3 µM] | 8% | ?
- CCCN(CC(=O)Nc1ccccc1OC)C(=O)CN1C(=O)NC2(CCCCC2)C1=O
 : -1% | . | 50% | . | . | -1% | 5% | -9%
- COc1ccc(Cl)cc1N1C(=NC(=O)C2CCCCC2)SC2CS(=O)(=O)CC21 (stereo not given)
 : 1% | . | -2% | . | -5% | . | . | -11%
- CC(C)Oc1ccc(N2CC(C(=O)Nc3ccc4c(c3)OCO4)CC2=O)cc1 (stereo not given)
 : 1% | 3.6% | -1% | 0% | 0% | . | . | 16%
- Cc1cccc2c1N(N=O)CCC2
 : 24% | 8.8% | -6% | -5% | 8% | 21% | ? | -15%
- Cc1c(OCC(=O)NC(Cc2ccc(Cl)cc2)C(=O)O)ccc2c(-c3ccccc3)cc(=O)oc12 (stereo not given)
 : -2% | . | 2% | . | 23% | . | . | -16%
- O=C(N/N=C/c1ccncc1)c1ccncc1
 : . | . | 0% | . | . | ? | -3%[46.1 µM] | -9%
- O=C(Nc1ccc(Cl)cc1)C1C2C=CC3(O2)C1C(=O)N(CCCN1CCCCC1)C3C(=O)NC1CCCCC1 (stereo not given)
 : 1% | . | 0% | . | -1% | 13%[46.1 µM] | 2%[46.1 µM] | 28%
- O=C(CSCc1nc2ccccc2[nH]1)N1CCN(c2cccc(Cl)c2)CC1
 : 0% | -0.4% | -12% | 2% | -57% | -28% | ? | 35µM*
- Cc1cc(NC(=O)CS(=O)(=O)c2cn(Cc3cccc(F)c3)c3ccccc23)no1
 : -10% | -6.6% | 13% | 3% | -29% | ? | ? | 40µM*
- Cc1cc(C)nc(NS(=O)(=O)c2ccc(NC(=O)c3cc(=O)c4ccccc4o3)cc2)n1
 : 22% | . | -3% | . | -16% | . | . | ?
- CCC(SCC(=O)OC)C(=O)Nc1nnc(C(C)C)s1 (stereo not given)
 : 0% | 0.0% | 0% | -2% | -12% | . | . | -6%
- O=C(CCN1C(=O)/C(=C/c2ccccc2)SC1=S)NCCCN1CCOCC1
 : 1% | . | -5% | . | 3% | -28% | ? | 3%
- COc1cccc(Cc2nc3ccccc3nc2SCC(=O)N2CCCCC2C)c1 (stereo not given)
 : . | -2.7% | . | 5% | . | 11µM* | . | -4%
- Nc1cc(=O)[nH]c(SCC(=O)Nc2cccc(Cl)c2)n1
 : 3% | 0.3% | -2%[3.69 µM] | 0% | 11% | -3% | 3% | -16%
- COC(=O)c1cc(S(=O)(=O)N2CCN(c3cccc(C)c3C)CC2)c[nH]1
 : -10% | . | -1% | . | -14% | . | . | -11%
- N#C/C(=N\Nc1ccc(Cl)cc1)C(=O)c1ccccc1
 : -29% | -19% | -11% | -16% | -161% | ? | 11µM* | ?
- Cc1ccc(NC(=S)NNc2ncc(C(F)(F)F)cc2Cl)c(C)c1
 : 9% | -2.1% | -25% | -3% | 0% | -29% | ? | ?
- CN(C)CCNC(=O)CN1C(=O)CCn2nc(-c3cn(C)c4ccccc34)cc21
 : . | 0.0% | . | ? | . | 25%[46.1 µM] | . | -7%
- CCC(=O)Nc1cc(C)c(NC(=O)CCc2ccccc2)cn1
 : 5% | -1.5% | -4% | -1% | 7% | 17% | 2% | 4%
- N=c1c(C(=O)NCc2ccccc2)cc2c(=O)n3ccccc3nc2n1CCCN1CCOCC1
 : 3% | -8.4% | -9% | ? | -12% | -3% | ? | -3%
- O=C1CCCc2c1[nH]c1c(Br)cccc21
 : -1% | -2.6% | 2% | -9% | ? | 0% | 16%[46.1 µM] | -5%
- CC(C)c1ccccc1NC(=O)CNC(C)c1ccc(F)cc1 (stereo not given)
 : -2% | . | 4% | . | 2% | -2%[46.1 µM] | ? | -5%
- COc1ccc(NC(=O)Cn2c(=O)n(Cc3nc(C)no3)c(=O)c3cc4c(cc32)OCO4)cc1OC
 : . | -6.4% | . | ? | . | 0%[46.1 µM] | . | -24%
- Cn1cc(NC(=O)OCc2ccc(Cl)cc2)c(C(F)(F)F)n1
 : -1% | . | -17% | . | -2% | . | . | -17%
- C=CCn1cc(Cl)c(=O)n(CC=C)c1=O
 : 1% | -0.5% | 7% | -12% | 5% | 4% | 1% | .
- Cc1ccc(S(=O)(=O)NCc2ccccc2)cc1C(=O)N(C)Cc1ccc(F)cc1
 : -1% | . | 0% | . | -5% | . | . | 9%
- Cc1cccc(N2CCN(S(=O)(=O)c3cc4c(cc3Cl)NC(=O)CO4)CC2)c1C
 : -1% | . | -7% | . | 3% | . | . | -27%
- Cc1cc(/C=C2\C(=O)NC(=O)N(c3cccc(Br)c3)C2=O)c(C)n1C
 : 7% | -4.9% | 18% | ? | 15% | 3% | -6% | 0%
- Cc1ccc(SCCC(=O)OCC(=O)NCC2CCCCC2)cc1
 : -3% | . | -13% | . | -8% | -11% | 8%[46.1 µM] | -11%
- Cc1cc(C)cc(-n2c(SCC(=O)Nc3ccc4c(c3)OCO4)nc3c([nH]c4ccccc43)c2=O)c1
 : . | -1.8% | . | 6.3µM* | . | 24%[46.1 µM] | . | -13%
- Cn1cc(/C=N/NC(N)=S)c2ccccc21
 : 21% | . | -21% | . | 4% | 10%[46.1 µM] | ? | -12%
- Cc1nc(COc2cccc(Cl)c2)sc1C(=O)/C=C/N(C)C
 : -2% | . | 22% | . | 25% | ? | 14% | 40%[activator]
- Cc1ccc(-n2ncc3c2CCCC3NC(=O)c2ccoc2)cc1C (stereo not given)
 : -6% | . | 29% | . | -2% | -30% | ? | -28%
- CC(C)(C)C(=O)Nc1ccc(NC(=O)C(C)(C)C)cc1
 : 1% | . | 1% | . | 7% | . | . | 17%
- CC(C)(C)NC(=O)Cn1nnc(-c2ccccc2NC(=O)c2ccco2)n1
 : . | . | -7% | . | . | -8% | -7%[46.1 µM] | -27%
- COc1ccc(OC)c(S(=O)(=O)Nc2ccc(OCC(=O)O)cc2)c1
 : -2% | 3.4% | 12% | ? | ? | . | -3% | -29%
- CCN(C(=O)CN1CCCc2ccccc21)c1c(N)n(Cc2ccccc2)c(=O)[nH]c1=O
 : -5% | 3.4% | . | 6% | 2% | . | 3% | .
- Cc1cc(C)nc(N2Cc3ccccc3C2=N)n1
 : 2% | . | -14% | . | -5% | . | . | -11%
- Cn1c(CCN2CCCCC2)nc2cc(NC(=O)NC3CCCCC3)ccc21
 : 3% | 4.1% | 3% | 5% | 7% | -5% | ? | -15%
- CCCSP1(=S)NCCCO1 (stereo not given)
 : -2% | -1.2% | 11% | -8% | -9% | -6% | -2% | -8%
- CCOC(=O)C(CCCCC(NC(C)=O)(C(=O)OCC)C(=O)OCC)(NC(C)=O)C(=O)OCC
 : 1% | . | -6% | . | 2% | 11% | 22% | 6%
- Cc1ccn2c(Nc3ccccc3C)c(-c3ccccc3)nc2c1
 : . | -19% | . | -3% | . | 16%[46.1 µM] | -4%[46.1 µM] | -29%
